ID4 binder: binders of human ID4 protein. P47928. small molecule microarray, Flag-ID4 binding, fluorescence F/B. calls only. hit rate 1.2% among 31,000;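 active = spot signal over background at p below 0.07 in all four prints; compounds were printed on slides so no solution concentration is given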;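 note: a binder raises fluorescence above local background on the spot; about 2 pmol printed per array spot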
Target sequence (P47928 whole entry, looked up): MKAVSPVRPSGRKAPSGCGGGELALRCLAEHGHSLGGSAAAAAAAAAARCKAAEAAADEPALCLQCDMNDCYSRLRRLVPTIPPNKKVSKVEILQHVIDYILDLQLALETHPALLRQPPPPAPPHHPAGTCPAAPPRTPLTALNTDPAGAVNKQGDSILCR
c-Myc SMM: c-Myc (human) binding; P01106; small molecule microarray, His-c-Myc binding, anti-His fluorescence; calls only; hit rate 1.5% among 17,000; AID 624141;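 active = spot fluorescence over background with P-value below 7% in all four replicate spots, showing protein binding; compounds were printed on slides so no solution concentration is given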;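 note: score is binary with 100 for all four spots passing and 0 otherwise; about 2 pmol printed per array spot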
STAT3 SMM: STAT3 (human) binding. calls only. hit rate 0.2% among 17,000. P40763. AID 624138. Small molecule microarray, His-STAT3 binding, anti-His fluorescence;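 active = compounds whose four printed spots each show fluorescence over background unusually high for their array block, chance value under 7%; compounds were printed on slides so no solution concentration is given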;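 note: about 2 pmol printed per array spot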
Target sequence (P40763 whole entry, looked up): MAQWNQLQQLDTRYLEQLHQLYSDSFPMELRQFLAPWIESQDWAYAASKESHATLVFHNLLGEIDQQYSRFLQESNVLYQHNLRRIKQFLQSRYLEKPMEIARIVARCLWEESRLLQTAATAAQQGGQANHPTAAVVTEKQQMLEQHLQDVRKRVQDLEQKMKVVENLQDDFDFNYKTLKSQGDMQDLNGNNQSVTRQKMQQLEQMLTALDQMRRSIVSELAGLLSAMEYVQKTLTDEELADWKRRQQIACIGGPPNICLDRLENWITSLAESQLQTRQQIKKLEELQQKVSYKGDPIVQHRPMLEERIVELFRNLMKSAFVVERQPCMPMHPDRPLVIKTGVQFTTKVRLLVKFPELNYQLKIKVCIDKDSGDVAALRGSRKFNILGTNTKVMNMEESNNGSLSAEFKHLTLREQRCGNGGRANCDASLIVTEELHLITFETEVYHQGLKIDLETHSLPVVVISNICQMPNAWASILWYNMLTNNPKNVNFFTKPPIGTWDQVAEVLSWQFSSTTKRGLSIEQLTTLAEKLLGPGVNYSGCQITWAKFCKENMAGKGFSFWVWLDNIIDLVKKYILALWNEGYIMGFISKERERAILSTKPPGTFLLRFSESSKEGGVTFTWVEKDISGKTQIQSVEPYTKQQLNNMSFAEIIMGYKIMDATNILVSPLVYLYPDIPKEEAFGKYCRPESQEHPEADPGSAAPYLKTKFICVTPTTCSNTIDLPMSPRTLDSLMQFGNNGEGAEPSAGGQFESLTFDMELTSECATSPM
mut p53 SMM: binders of human mutant p53 | hit rate 0.4% among 17,000 | calls only | small molecule microarray binding, anti-GST fluorescence;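 active = compounds whose four printed spots each glow above background more than chance allows, each with a p-value under 7%; compounds were printed on slides so no solution concentration is given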;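 note: about 2 pmol printed per array spot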
Calls only; i = inactive; . = not tested or not shown; + = active, no number. The order is random (roughly 3.7% active in at least one column).

SMILES	ID4 binder	c-Myc SMM	STAT3 SMM	mut p53 SMM
CCC(Sc1ccccn1)C(=O)Nc1cccc([N+](=O)[O-])c1 (configuration not stated)	i	i	i	i
C[C@@H]1CN([C@H](C)CO)C(=O)c2cc(NC(=O)Cn3cnnn3)ccc2O[C@@H]1CN(C)C(=O)NC1CCCCC1	i	i	i	i
CNC[C@H]1Oc2ccc(NC(=O)C3CC3)cc2CC(=O)N([C@@H](C)CO)C[C@@H]1C	i	i	i	i
COc1ccc(S(=O)(=O)Nc2ccc3c(c2)C(=O)N([C@H](C)CO)C[C@@H](C)[C@H](CN(C)S(=O)(=O)c2cn(C)cn2)O3)cc1	i	i	i	i
COc1ccc(-c2noc(CN(C(C)C)S(=O)(=O)c3ccccc3)n2)cc1	i	i	i	i
O=C(CSc1nc2sc3c(c2c(=O)n1C1CCCCC1)CCCC3)Nc1ccccc1	i	i	i	i
Oc1c(C(Nc2ccccn2)c2cccc(OC3CCCC3)c2)ccc2cccnc12 (configuration not stated)	i	i	i	i
C[C@@H]1CN([C@H](C)CO)C(=O)CCCn2cc(nn2)CO[C@H]1CN(C)Cc1cccc2c1OCCCO2	i	i	i	i
C[C@@H]1CN([C@H](C)CO)C(=O)c2cccc(NC(=O)Nc3cccc4ccccc34)c2O[C@@H]1CN(C)C(=O)Nc1ccc(F)cc1	i	i	i	i
C=CC[C@]12C[C@@H](OC)C(=O)C(OC)=C1O[C@@H](c1cc(OC)c3c(c1)OCO3)[C@@H]2C	i	i	i	i
CNC[C@H]1Oc2c(NC(=O)c3cc(C)nn3C)cccc2C(=O)N([C@@H](C)CO)C[C@H]1C	i	i	i	i
COC(=O)C1(Cc2ccc(O)c(CC=C(C)C)c2)OC(=O)C(OC)=C1c1ccc(O)cc1 (configuration not stated)	.	i	i	i
CC(C)NC(=O)Nc1ccc2c(c1)C(=O)N([C@H](C)CO)C[C@H](C)[C@H](CN(C)Cc1ccc(C(=O)O)cc1)OCCCC[C@H](C)O2	i	i	i	i
O=c1cc(-c2ccc(O)c(O)c2)oc2c(C3OC(CO)C(O)C(O)C3O)c(O)cc(O)c12 (configuration not stated)	.	i	i	i
COc1ccc(S(=O)(=O)Nc2ccc3c(c2)CC(=O)N([C@@H](C)CO)C[C@@H](C)[C@@H](CN(C)C)O3)cc1	i	i	i	i
C[C@@H]1CN([C@H](C)CO)C(=O)c2cc(NC(=O)c3ccccc3)ccc2O[C@@H](C)CCCCO[C@@H]1CN(C)S(=O)(=O)c1cn(C)cn1	i	i	i	i
C[C@@H]1O[C@@H](Oc2cc(O)c3c(=O)c(-c4ccc(O)cc4)coc3c2)[C@H](O)[C@H](O)[C@H]1O	i	i	i	i
COc1ccc(NC(=S)N(C)Cc2c(C)nn(C)c2C)c(OC)c1	i	i	i	i
C[C@@H]1CN([C@H](C)CO)C(=O)CCCn2nncc2CO[C@@H]1CN(C)C(=O)Nc1ccc(N2CCN(C)CC2)cc1	i	i	i	i
C[C@@H]1CN([C@H](C)CO)C(=O)Cc2cc(NC(=O)Nc3ccc(C(F)(F)F)cc3)ccc2O[C@H]1CN(C)C(=O)NC1CCCCC1	i	i	i	i
C[C@@H]1CN([C@H](C)CO)C(=O)c2cc(N(C)C)ccc2O[C@@H](C)CCCCO[C@H]1CN(C)Cc1ccncc1	i	i	i	i
CCS(=O)(=O)c1nc2ccccc2n1CC(N)=O	i	i	i	i
CC(C)NC(=O)Nc1ccc2c(c1)CC(=O)N([C@@H](C)CO)C[C@H](C)[C@@H](CN(C)C(=O)NC(C)C)O2	.	i	i	i
CCC(Sc1nncn1C)C(=O)Nc1ccc([N+](=O)[O-])cc1 (configuration not stated)	i	i	i	i
Cc1noc(C)c1S(=O)(=O)N(C)C[C@@H]1OCCCC[C@H](C)Oc2ccc(N(C)C)cc2C(=O)N([C@H](C)CO)C[C@H]1C	i	i	i	i

The list goes on.
SMILES	ID4 binder	c-Myc SMM	STAT3 SMM	mut p53 SMM
CCCC(NS(=O)(=O)c1ccc(C)cc1)C(=O)O (configuration not stated)	i	+	i	i
CNc1nc(OCC#N)nc(N2CCCCC2)n1	i	i	i	i
C[C@H](CO)N1C[C@H](C)[C@@H](CN(C)S(=O)(=O)c2ccc(Cl)cc2)Oc2ccc(NC(=O)C3CC3)cc2CC1=O	.	i	i	i
COc1cc2[nH]c(=S)n(CCCN3CCOCC3)c(=O)c2cc1OC	i	i	i	i
Cn1c(SCC(=O)Nc2cccc(C(=O)O)c2)nnc1-c1cc2cc(Br)ccc2o1	i	i	i	i
O=C(CSc1nc2ccccc2c(=O)[nH]1)Nc1ccc2c(c1)OCCO2	i	i	i	i
O=C1O[C@H](c2ccccc2)[C@H](c2ccccc2)N2[C@H]1[C@@H](C(=O)O)[C@]1(C(=O)Nc3ccc(C#CC4(O)CCCCCC4)cc31)[C@H]2c1ccccc1OCCO	.	i	i	i
O=C(CCSc1nc(-c2ccco2)cc(C(F)(F)F)n1)N1CCN(c2ccccn2)CC1	i	i	i	i
COc1cc(S(=O)(=O)n2cnc3cc(C)c(C)cc32)c(OC)cc1Cl	i	i	i	i
N#Cc1cccc(CSc2nnc(CCCO)n2-c2ccccc2)c1	i	i	i	i
C#CCNC(=O)C1=C[C@H](c2ccc(C#C)cc2)[C@@H](CCCO)[C@H](OCC)O1	i	i	i	i
C[C@@H]1CCCCO[C@H](CN(C)S(=O)(=O)c2ccccc2)[C@@H](C)CN([C@H](C)CO)C(=O)c2cc(NS(C)(=O)=O)ccc2O1	i	i	i	i
COc1ccc(S(=O)(=O)N(C)C[C@@H]2Oc3c(NC(=O)C4CC4)cccc3C(=O)N([C@H](C)CO)C[C@@H]2C)cc1	i	i	i	i
C[C@@H]1CCCCO[C@H](CN(C)C)[C@@H](C)CN([C@@H](C)CO)C(=O)c2cc(NC(=O)c3ccccc3)ccc2O1	i	i	i	i
Cc1ccc(S(=O)(=O)Nc2cccc3c2O[C@@H](CN(C)C(=O)Nc2c(C)noc2C)[C@@H](C)CN([C@H](C)CO)C3=O)cc1	.	i	i	i
C[C@@H]1CN([C@H](C)CO)C(=O)c2cc(N(C)C)ccc2O[C@H]1CN(C)S(=O)(=O)c1ccccc1	i	i	i	i
C[C@@H]1CN([C@H](C)CO)C(=O)c2cc(NS(=O)(=O)c3cn(C)cn3)ccc2O[C@H]1CN(C)C	i	i	i	i
C[C@H](CO)N1C[C@H](C)[C@H](CN(C)CC2CC2)Oc2c(cccc2N(C)C)C1=O	i	i	i	i
CC(C)C1CCC2(C)CCC(O)C(C)(O)C2C1OC(=O)/C=C/c1ccccc1 (configuration not stated)	i	i	i	i
C[C@@H]1CN([C@@H](C)CO)C(=O)c2cccc(NS(=O)(=O)c3ccc(Cl)cc3)c2O[C@@H]1CN(C)Cc1ccc2c(c1)OCO2	i	i	i	i
C[C@@H]1CN([C@@H](C)CO)C(=O)c2cc(NC(=O)CCN3CCOCC3)ccc2O[C@H]1CN(C)C(=O)Nc1ccc(F)cc1	i	i	i	i
C#Cc1ccc([C@H]2C=C(C(=O)N3CCN(Cc4ccc5c(c4)OCO5)CC3)O[C@@H](OCC)[C@@H]2CCCO)cc1	i	i	i	i
C[C@H](CO)N1C[C@H](C)[C@@H](CN(C)Cc2ccc(C(=O)O)cc2)Oc2c(NS(=O)(=O)c3cccs3)cccc2C1=O	i	i	i	i
O=C(CSc1nnc(-c2ccco2)o1)c1ccc2c(c1)OCCO2	i	i	i	i
COc1ccc(NC(=O)Nc2cccc3c2O[C@H](CN(C)S(=O)(=O)c2ccc(OC)cc2)[C@@H](C)CN([C@H](C)CO)C3=O)cc1	i	i	i	i

Exported field by field: entries from further up.
structure: C[C@@H]1CCCCO[C@H](CN(C)S(=O)(=O)c2ccccc2)[C@@H](C)CN([C@H](C)CO)C(=O)c2cc(NS(C)(=O)=O)ccc2O1
  ID4 binder: i
  c-Myc SMM: i
  STAT3 SMM: i
  mut p53 SMM: i
structure: COc1ccc(S(=O)(=O)N(C)C[C@@H]2Oc3c(NC(=O)C4CC4)cccc3C(=O)N([C@H](C)CO)C[C@@H]2C)cc1
  ID4 binder: i
  c-Myc SMM: i
  STAT3 SMM: i
  mut p53 SMM: i
structure: C[C@@H]1CCCCO[C@H](CN(C)C)[C@@H](C)CN([C@@H](C)CO)C(=O)c2cc(NC(=O)c3ccccc3)ccc2O1
  ID4 binder: i
  c-Myc SMM: i
  STAT3 SMM: i
  mut p53 SMM: i
structure: Cc1ccc(S(=O)(=O)Nc2cccc3c2O[C@@H](CN(C)C(=O)Nc2c(C)noc2C)[C@@H](C)CN([C@H](C)CO)C3=O)cc1
  ID4 binder: .
  c-Myc SMM: i
  STAT3 SMM: i
  mut p53 SMM: i

The results go on.
SMILES	ID4 binder	c-Myc SMM	STAT3 SMM	mut p53 SMM
CNC(=O)CN(c1ccc(F)cc1)S(=O)(=O)c1ccc2c(c1)OCCO2	i	i	i	i
C[C@H]1CN([C@@H](C)CO)C(=O)c2cccc(NC(=O)c3nc4ccccc4s3)c2O[C@H]1CN(C)C(=O)NC1CCCCC1	i	i	i	i
C[C@H](CO)N1C[C@H](C)[C@@H](CN(C)C(=O)OCc2ccccc2)OCc2cn(nn2)CCCC1=O	i	i	i	i
C[C@@H]1CN([C@H](C)CO)C(=O)c2cc(NC(=O)Cn3cnnn3)ccc2O[C@@H]1CN(C)Cc1ccc(Cl)c(Cl)c1	i	i	i	i
Cc1ccc(C(C)C)c(OCCSc2nc(N)cc(N)n2)c1	i	i	i	i
COc1ccc(S(=O)(=O)N(C)C[C@@H]2Oc3ccc(NC(=O)Cc4ccccc4)cc3C(=O)N([C@@H](C)CO)C[C@H]2C)cc1	i	i	i	i
COc1ccc(S(=O)(=O)N(C)C[C@H]2Oc3ccc(NC(=O)C4CC4)cc3C(=O)N([C@@H](C)CO)C[C@@H]2C)cc1	i	i	i	i
COc1ccc(NC(=O)Nc2ccc3c(c2)CC(=O)N([C@@H](C)CO)C[C@H](C)[C@@H](CN(C)S(=O)(=O)c2ccc(C)cc2)O3)cc1	i	i	i	i
C[C@H]1CN([C@@H](C)CO)C(=O)c2cc(NC(=O)CCCN(C)C)ccc2O[C@H]1CN(C)S(C)(=O)=O	.	i	i	i
CCC(C)C(=O)c1c(O)cc2c(c1O)CC(CC=C(C)C)C(C)(C)O2 (configuration not stated)	i	i	i	i
COc1ccc(CN(C)C[C@@H]2OCCCC[C@H](C)Oc3ccc(NC(=O)NC4CCCCC4)cc3C(=O)N([C@H](C)CO)C[C@H]2C)cc1	.	i	i	i
COc1ccc(NC(=O)CC(C(=O)O)N2CCCCC2)cc1 (configuration not stated)	i	i	i	i
COc1ccc(S(=O)(=O)Nc2ccc3c(c2)C(=O)N([C@H](C)CO)C[C@@H](C)[C@H](CN(C)C(=O)Nc2ccc(F)cc2)OCCCC[C@H](C)O3)cc1	.	i	i	i
C[C@H]1CN([C@@H](C)CO)C(=O)Cc2cc(NC(=O)Cc3cn(C)c4ccccc34)ccc2O[C@H]1CN(C)Cc1ccc(C(=O)O)cc1	i	i	i	i
COc1cc(/C(C)=C/C(C)O)oc(=O)c1C (configuration not stated)	i	i	i	i
OCCOCCNc1ncnc2sc(-c3ccccc3)cc12	i	i	i	i
C[C@@H]1[C@H]2[C@H](O[C@@H]3O[C@H](CO)[C@@H](O)[C@H](O)[C@H]3O)OC=C(C(=O)O)[C@H]2C[C@@H]1OC(=O)/C=C/c1ccc(O)cc1	.	i	i	i
C[C@@H]1CN([C@H](C)CO)C(=O)c2cccc(NS(C)(=O)=O)c2O[C@H]1CN(C)Cc1ccc(C(F)(F)F)cc1	i	i	i	i
OC[C@@H]1[C@H]2c3ccccc3OC1(CO)N=C1SCc3ccccc3CN12	i	i	i	i
COc1ccc(CCN2C(=O)C(NC(=O)C(C)(C)C)(C(F)(F)F)C3=C2CC(C)(C)CC3=O)cc1OC (configuration not stated)	i	i	i	i
CSc1cccc(NC(=O)CSc2nnc(-c3ccc(Br)cc3)n2C)c1	i	i	i	i
Cc1nc(SCC(=O)Nc2ccccc2)n[nH]1	i	i	i	i
C[C@H](CO)N1C[C@H](C)[C@H](CN(C)C)Oc2c(NC(=O)C3CCOCC3)cccc2C1=O	i	i	i	i
CSc1nsc(SC)c1NC(=O)OCCc1ccccn1	i	i	i	i
Cc1noc(C)c1S(=O)(=O)Nc1ccc2c(c1)C(=O)N([C@H](C)CO)C[C@H](C)[C@H](CN(C)C)OCCCC[C@H](C)O2	i	i	i	i

The list goes on; it opens with the 2 that closed the last part.
SMILES	ID4 binder	c-Myc SMM	STAT3 SMM	mut p53 SMM
CSc1nsc(SC)c1NC(=O)OCCc1ccccn1	i	i	i	i
Cc1noc(C)c1S(=O)(=O)Nc1ccc2c(c1)C(=O)N([C@H](C)CO)C[C@H](C)[C@H](CN(C)C)OCCCC[C@H](C)O2	i	i	i	i
CCO[C@@H]1OC(C(=O)NCc2ccccc2)=C[C@H](c2ccc(C(F)(F)F)cc2)[C@H]1CCCO	.	i	i	i
C[C@@H]1CN([C@H](C)CO)C(=O)Cc2cc(NC(=O)Cn3cnnn3)ccc2O[C@H]1CN(C)C(=O)Nc1ccc(C(F)(F)F)cc1	.	i	i	i
CCc1ccc(NC(=O)COc2ccc(NC(C)=O)cc2)cc1	i	i	i	i
CCC(=O)OCC1=CCCC2C1(C)CCC(C)C2(C)CCC(C)CC(=O)O (configuration not stated)	i	i	i	i
C[C@H]1CCCCO[C@@H](CN(C)C(=O)CCC(F)(F)F)[C@@H](C)CN([C@@H](C)CO)C(=O)c2cc(NS(C)(=O)=O)ccc2O1	i	i	i	i
C[C@H](CO)N1C[C@H](C)[C@@H](CN(C)C)Oc2c(NC(=O)Nc3ccc4c(c3)OCO4)cccc2C1=O	i	i	i	i
